HPGD block: qHTS Assay for Inhibitors of HPGD (15-Hydroxyprostaglandin Dehydrogenase) | 15-hydroxyprostaglandin dehydrogenase [NAD(+)] (Homo sapiens), P15428 | purified HPGD, NADH fluorescence kinetic, PGE2 substrate | Potency, µM, inactives show at the highest dose activity change, negative = inhibition, actives largely listed as inhibitors | 4.3% of 150,000 active; active = well fitted inhibition curve with a large enough effect (not every such curve was filed as active); inconclusive = small, poorly fitted or top-dose-only effect, or another doubt; inactive = no such curve, though single readings can be large or run the other way;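 also: top concentration of the series not given in the record; plate controls included wells without enzyme; inactives centre near -10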
Target sequence (P15428 whole entry, looked up): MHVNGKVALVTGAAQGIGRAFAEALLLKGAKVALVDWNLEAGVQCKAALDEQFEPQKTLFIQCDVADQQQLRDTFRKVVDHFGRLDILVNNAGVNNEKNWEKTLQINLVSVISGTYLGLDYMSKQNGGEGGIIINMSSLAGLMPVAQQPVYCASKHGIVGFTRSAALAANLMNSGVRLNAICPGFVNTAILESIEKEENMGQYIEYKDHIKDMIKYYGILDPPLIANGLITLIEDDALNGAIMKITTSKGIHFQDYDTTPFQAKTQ
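NADH formation kinetics: reaction with 30 uM PGE2 and 1 mM NAD+ (final), 20 nM enzyme, Tris-HCl pH 8 with Tween 20, after 15 min compound preincubation at room temperature. Fluorescence change, last versus first of five reads.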
An asterisk follows results filed as active; u = inconclusive. % is scaled to controls: 0 for no effect and ±100 for the full control effect; potency is read from the fitted curve at half-maximal effect. This is a subset; count on the stated rates, not on these rows.

| mol | HPGD block |
| --- | --- |
| Cc1ccc(C(=O)Nc2c(C(=O)NCc3ccco3)cnn2-c2ccccc2)cc1 | -4% |
| CCc1cc(OCCCCNCc2ccccc2)ccc1Cl | -2% |
| CCCCC(=O)OCC(=O)c1[nH]c(C)c(C(=O)OCC)c1C | -6% |
| COc1cc(C=O)ccc1OCCSc1ccc(C)cc1 | 18µM* |
| Cc1ccc2c(c1)NC(=O)C(CC(=O)NCCCN1CCN(c3cc(Cl)ccc3C)CC1)O2 (stereo not drawn) | -21% |
| CNC(=O)C1CC(=O)N(c2ccc(C)cc2)C1 (stereo not drawn) | -3% |
| CN(CC(=O)N1CCN(c2cccc(Cl)c2)CC1)S(=O)(=O)c1cnc[nH]1 | -4% |
| COc1ccccc1NC(=O)C1C2CCCCC21 (stereo not drawn) | -11% |
| CC1(C)NC(=O)N(c2ccccc2Cl)C1(C)NO (stereo not drawn) | -5% |
| Cc1ccc(Oc2ccc(NC(=O)CCC(=O)OCC(=O)c3cccs3)cc2)cc1C | -28% |
| O=C(NCCCNc1ccc(C(F)(F)F)cc1[N+](=O)[O-])c1cc(F)c(F)cc1Cl | -19% |
| Oc1ccc(N2CCN(C(=S)NCCc3ccccc3)CC2)cc1 | -13% |
| Cc1nc(SCC(O)CCl)c([N+](=O)[O-])[nH]1 (stereo not drawn) | -5% |
| COc1ccc(-n2nc3c(c2NC(=O)c2cc(Br)ccc2Cl)CS(=O)C3)cc1 (stereo not drawn) | -3% |
| O=C(NCCCCCCNC(=O)N1CCCCCC1)N1CCCCCC1 | -15% |
| COCCN1C(=O)c2ccccc2C(C(=O)NCc2ccco2)C1c1c[nH]c2ccccc12 (stereo not drawn) | -6% |
| CC(C)(C)c1cc(NC(=O)COC(=O)C2CC2)n(-c2ccccc2)n1 | -2% |
| Cc1ccc(S(=O)(=O)n2cnc3ccccc32)cc1 | -10% |
| c1ccc(-n2c(-c3cccs3)nc3nc4ccccc4nc32)cc1 | u |
| N#Cc1c(NC(=O)/C=C/c2ccco2)sc2c1CCCC2 | u |
| COc1ccc(NC(=O)NC2CCN(C(C)C)CC2)c(OC)c1 | -8% |
| O=C(Nc1ccc(OC(F)F)c(Cl)c1)[C@@H]1CCCN1C(=O)c1cccs1 | -1% |
| Fc1cccc(CSc2ccc(-c3ccco3)nn2)c1 | -17% |
| CCn1c(O)c(C=NCCN2CCOCC2)sc1=S | 1% |
| COc1ccc(/C=N/NS(C)(=O)=O)c(OC)c1 | u |
| O=C(N/N=C/c1cccnc1)c1ccc([N+](=O)[O-])cc1 | -3% |
| CCCCn1c(=S)[nH]c2ncccc2c1=O | -3% |
| CCOc1ccccc1NS(=O)(=O)c1c(C)noc1C | -10% |
| O=C(Cc1c(O)c2ccccc2[nH]c1=O)OC1CCCCC1 | u |
| CC(=O)Nc1nc(COc2ccccc2)cs1 | -15% |
| O=c1cc[nH]c2cccc(Cc3ccccc3)c12 | -27% |
| Cc1nc2nc(-c3cccs3)cn2nc1C | -26% |
| Cc1cc(C)c(S(=O)(=O)c2ccccc2)c(N(C)C)n1 | -2% |
| COc1cc2c3nnc(-c4ccc(F)cc4)c-3cn(Cc3ccc(F)cc3)c2cc1OC | u |
| COc1ccc(N)c(C)c1 | -4% |
| Cc1cccc(CN2C(=O)N/C(=C/c3ccc(C)s3)C2=O)c1 | u |
| CC(C)(C)n1nnnc1CN(Cc1cccnc1)Cc1ccccc1Cl | -14% |
| CC(C)CNC(=O)c1cc(-c2ccc(Br)cc2)on1 | -23% |
| CCc1c(C)nc2nc(NC(C)=O)[nH]n2c1=O | 0% |
| O=C(NCc1ccc(OC(F)(F)F)cc1)C12CN(Cc3ccccc3)CC1C(c1cccc([N+](=O)[O-])c1)=NO2 (stereo not drawn) | -17% |
| COc1ccc(CCNC(=O)C2CCN(C(=O)NC3CCCCC3)CC2)cc1 | 8% |
| CC1(C)CC(=O)C2=C(C1)N(c1cccnc1)C(N)=C(C#N)C2c1cccs1 (stereo not drawn) | -26% |
| CSc1nc2nc3c(c(=O)n2[nH]1)CN(Cc1ccccc1)CC3 | -1% |
| CCN(CC)S(=O)(=O)c1ccc(N2CCOCC2)c(NC(=O)Cc2ccccc2F)c1 | -6% |
| COc1cc(S(=O)(=O)NCC2CCCO2)ccc1Br (stereo not drawn) | -12% |
| Fc1ccc(NC(=S)N2CCCC2)cc1Cl | -14% |
| CCOc1ccc(OCC)c(NC(=O)CN(C)S(=O)(=O)c2cnc[nH]2)c1 | -6% |
| CCOc1ccccc1N1CCN(Cc2ccco2)CC1 | -7% |
| Cc1ccc2cc(CN(Cc3ccco3)S(=O)(=O)c3c(C)ccc4nsnc34)c(=O)[nH]c2c1 | u |
| COc1cccc(N(C(=O)Cn2nnc(-c3cccs3)n2)C(C(=O)NC(C)C)c2ccc(C)o2)c1 (stereo not drawn) | -8% |
| O=C1CCC2(C(=O)O)Sc3ccccc3N12 (stereo not drawn) | -6% |
| CCC1CSC(Nc2ccc(C(=O)/C=C/c3ccc(Br)cc3)cc2)=N1 (stereo not drawn) | u |
| O=[N+]([O-])/C=C/c1cn(Cc2ccc(Cl)cc2)c2ccccc12 | -21% |
| CC(CC(=O)NC(C)c1ccc2c(c1)OCCO2)c1ccccc1 (stereo not drawn) | -6% |
| COCCn1c(SCC(=O)N(C(C)C)C(C)C)nnc1-c1cc2ccccc2cc1O | -12% |
| Cn1c(=O)c(-[n+]2ccccc2)c([O-])c2ccccc21 | -2% |
| Cc1cccc(S(=O)(=O)C(C#N)c2nc3ccccc3nc2N2CC(C)OC(C)C2)c1 (stereo not drawn) | -5% |
| Fc1ccccc1NC(=S)N1CCN(C/C=C/c2ccccc2)CC1 | -14% |
| Cc1ccc(S(=O)(=O)N(CC(O)CN2C(=O)NC(C)(C)C2=O)c2ccccc2)cc1 (stereo not drawn) | -10% |
| O=S(=O)(c1ccccc1)n1c(C(O)c2ccccn2)cc2ccccc21 (stereo not drawn) | -6% |

(listing goes on)
| mol | HPGD block |
| --- | --- |
| Cc1ccc(OCC(=O)N/N=C/c2cccn2C)cc1 | -2% |
| Cc1ccc(NC(=O)c2ccc(NCC3CCCO3)c([N+](=O)[O-])c2)cc1Cl (stereo not drawn) | 14µM* |
| CC(NC(=O)c1ccccc1F)C(=O)O (stereo not drawn) | -4% |
| CCc1nnc(NC(=O)C2CC(=O)N(c3ccc4c(c3)OCCO4)C2)s1 (stereo not drawn) | -28% |
| CCCCc1nc2c(c3c1C[C@H](C)OC3)CN(C(=O)NCc1ccco1)CC2 | -6% |
| Cc1cc(C(=O)Nc2cccc(C(=O)O)c2)oc1C | -12% |
| CCOc1ccccc1NC1c2ccccc2C(=O)N1c1cccnc1 (stereo not drawn) | -5% |
| CCn1c(C)nc([N+](=O)[O-])c1Sc1ccc(F)cc1 | -27% |
| CC(NC(=O)c1ccncc1)C(c1cccs1)N1CCOCC1 (stereo not drawn) | -3% |
| CCOC(=O)N1CCC(NC(=O)CN2C(=O)CSc3nc(C)cc(C)c32)CC1 | 3% |
| Clc1cccc(N/N=C/c2ccncc2)c1 | -5% |
| COc1ccc(C(C)C)cc1S(=O)(=O)NCc1ccccn1 | -4% |
| COc1ccc(C(=O)c2cnc(C(C)C)n2C)cc1 | -5% |
| COC(=O)c1c(NC(=O)/C=C/c2ccc3c(c2)OCO3)sc(C)c1C | -10% |
| CCC(C)c1ccccc1NC(=O)c1cccnc1 (stereo not drawn) | 1% |
| Fc1ccc(CNCc2cccc(Br)c2)cc1 | 1% |
| COc1ccccc1NCCC#N | -4% |
| Cc1onc(-c2ccccc2Cl)c1C(=O)NCc1nc(-c2ccccc2)no1 | -26% |
| CC1=CC(C)(C)NC(=S)N1c1ccc(C)cc1 | -1% |
| CC1(C)OC2CC3C4CC(F)C5=CC(=O)C=CC5(C)C4C(O)CC3(C)[C@]2(C(=O)CO)O1 (stereo partly drawn) | -20% |
| CC1CCN(C(=O)Cc2nn(C)c(=O)c3ccccc23)CC1 | -13% |
| COc1ccc(/C(C)=C2\SC(=S)N(CCC(=O)O)C2=O)cc1 | -27% |
| CCOC(=O)C(=CNc1ccc(NC2=NCC(C)S2)cc1)C(=O)OCC (stereo not drawn) | 14µM* |
| CCOc1cc(C(=O)Nc2ccc(NC(C)=O)cc2)ccc1OCC(=O)N1CCCCC1 | -8% |
| CC(=C1C(=O)c2ccccc2C1=O)N1CCN(CCN=CC2=C(O)CC(C)(C)CC2=O)CC1 | -4% |
| CN1C=C(C(F)(F)F)C=C/C1=C(\C#N)c1nnc2n1CCCCC2 | -10% |
| Cc1[nH]nc2c1C(c1ccc(OC(=O)c3ccco3)cc1)C(C#N)=C(N)O2 (stereo not drawn) | -13% |
| C/C(=N\NC(N)=S)c1ccc[nH]1 | -8% |
| COc1ccc(CCNc2nc(C)nc3c2oc2ccccc23)cc1OC | -18% |
| CCn1cc(C(=O)O)c(=O)c2cc(Br)ccc21 | -2% |
| O=C(/C=C/c1ccccc1)NC(=S)Nc1ccc(CN2CCOCC2)cc1 | -3% |
| CCc1c(C)nc(Nc2nc(C)c3ccc(OC)cc3n2)[nH]c1=O | -4% |
| O=C(O)C1(NS(=O)(=O)c2ccc(Cl)cc2)CCCCC1 | 1% |
| Clc1ccccc1CO/N=C1\CCCc2nonc21 | -11% |
| COc1ccc(-c2nc(SCc3ccccc3)n(S(C)(=O)=O)n2)cc1 | 0% |
| CSc1cccc(NC(=O)CN(C2CCCCC2)S(C)(=O)=O)c1 | 4% |
| COc1cc(OC)cc(C(=O)NC(=S)NNC(=O)Cc2cccs2)c1 | u |
| Cc1cc(C)c2c(c1)/C(=N/NC(=O)c1cc(C)oc1C)CCC2 | -8% |
| O=C(O)CNC(=O)c1ccc(S(=O)(=O)N2CCOCC2)cc1 | -5% |
| Cc1cc(C)c(Cn2cnc(-c3ccc([N+](=O)[O-])cc3)c2)c(C)c1 | -7% |
| Cc1ccc(C(=O)O)cc1NC(=O)CN1C(=O)C2C3c4ccccc4C(Br)(c4ccccc43)C2C1=O (stereo not drawn) | -7% |
| CC(C)(C)C1=Nn2c(nnc2-c2ccccn2)SC1 | u |
| CCOc1ccc(NCc2nc3ccccc3n2CCOc2ccccc2)cc1 | -12% |
| Cc1ccc(C2=NN(CC(=O)NCc3ccccn3)C(=O)CC2)cc1 | -4% |
| CC(NC(=O)c1ccco1)C(c1cccs1)N1CCN(c2ccc(F)cc2)CC1 (stereo not drawn) | -16% |
| O=C(C1CCCO1)N1CCN(S(=O)(=O)c2ccccc2)CC1 (stereo not drawn) | -4% |
| O=c1nc(-c2ccccc2)c2cc(Cl)ccc2[nH]1 | -23% |
| CCCCc1cc(=O)oc2cc(OCC(=O)N3CCc4ccccc43)ccc12 | u |
| CCOC(=O)Cc1cnc(NC(=O)c2ccccc2)s1 | -19% |
| Cc1cc(NC(=O)CCC(=O)N(c2ccccc2)C2(C(=O)NC3CCCCC3)CCCC2)no1 | 7% |
| CCC(C)(C)NC(=O)C(c1ccncc1)N(Cc1cccs1)C(=O)Cn1nnc2ccccc21 (stereo not drawn) | -12% |
| c1ccc2c(CN3CCCCC3)csc2c1 | 3% |
| O=C(NC1CCCCC1)c1cc(Cl)ccc1[N+](=O)[O-] | 1% |
| Cc1ccc(S(=O)(=O)N(CC(=O)Nc2cccc([N+](=O)[O-])c2)Cc2ccc(Cl)cc2)cc1 | -4% |
| Cc1ccc(CNc2ncnc3cc(Cl)ccc23)o1 | -15% |
| Cc1ccccc1-n1c(Cn2c(=O)sc3ccccc32)nnc1SCC(=O)N1CCCC1 | -25% |
| CCCCC[C@H](O)/C=C/[C@H]1OC(O)C[C@H](O)[C@@H]1C/C=C\CC(=O)O (stereo partly drawn) | -8% |
| Cc1noc(C)c1C(=O)N1CCC[C@@]2(CCN(Cc3cc(C(F)(F)F)cc(C(F)(F)F)c3)C2)C1 | -1% |
| CC(C)=NNc1ncnc2nc[nH]c12 | -8% |
| O=C(C/C(=N\NC(=O)c1ccccc1Br)C(F)(F)F)c1cccs1 | -18% |

4 entries out of the list above, sorted by their value in HPGD block, smallest number first:
| mol | HPGD block |
| --- | --- |
| O=C(C/C(=N\NC(=O)c1ccccc1Br)C(F)(F)F)c1cccs1 | -18% |
| CC(NC(=O)c1ccco1)C(c1cccs1)N1CCN(c2ccc(F)cc2)CC1 (stereo not drawn) | -16% |
| Cc1ccc(S(=O)(=O)N(CC(=O)Nc2cccc([N+](=O)[O-])c2)Cc2ccc(Cl)cc2)cc1 | -4% |
| O=C(/C=C/c1ccccc1)NC(=S)Nc1ccc(CN2CCOCC2)cc1 | -3% |

Part of the list above, as labelled records.
> O=C(C1CCCO1)N1CCN(S(=O)(=O)c2ccccc2)CC1 (stereo not drawn)
  HPGD block = -4%

> O=c1nc(-c2ccccc2)c2cc(Cl)ccc2[nH]1
  HPGD block = -23%

Later entries
| mol | HPGD block |
| --- | --- |
| COc1c(F)c(F)c(C(=O)Nc2ccc(NC(=O)c3ccco3)cc2)c(F)c1F | -7% |
| O=C(NCCc1ccccc1)Nc1ccc(Cl)cc1 | -6% |
| O=c1oc2c(CN3CCCCC3)c(O)ccc2c2c1CCCCC2 | u |
| CCOC(=O)CNC(=O)O[C@@H]1C(=O)c2ccc(OC)cc2O[C@H]1c1ccc2c(c1)OCO2 | -5% |

In the list so far, these contain a CF3 group.
| mol | HPGD block |
| --- | --- |
| O=C(NCCCNc1ccc(C(F)(F)F)cc1[N+](=O)[O-])c1cc(F)c(F)cc1Cl | -19% |
| O=C(NCc1ccc(OC(F)(F)F)cc1)C12CN(Cc3ccccc3)CC1C(c1cccc([N+](=O)[O-])c1)=NO2 (stereo not drawn) | -17% |
| CN1C=C(C(F)(F)F)C=C/C1=C(\C#N)c1nnc2n1CCCCC2 | -10% |
| Cc1noc(C)c1C(=O)N1CCC[C@@]2(CCN(Cc3cc(C(F)(F)F)cc(C(F)(F)F)c3)C2)C1 | -1% |
| O=C(C/C(=N\NC(=O)c1ccccc1Br)C(F)(F)F)c1cccs1 | -18% |

From PubChem BioAssay
